# E coli growth – blocks Escherichia coli growth. OD600, 23 h; hits give low values. OD600 absorbance (no concentration beside the values). 330,000 tested, 0.21% active. AID 1053175;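 active = OD600 absorbance below the run mean of sample wells minus 3.6 SD, in any replicate, cut at about 0.56 in these data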;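 note: stock transfer was 300 nL into about 60 µL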
# UCH37 DUB inh – human UCH37 deubiquitinating enzyme inhibition; purified proteasome/UCH37, Ub-AMC cleavage fluorescence; inhibition, % (concentration not given with the values); 330,000 tested, 0.33% active; AID 588478;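 active = mean of two replicates above 20%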;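 note: 0% = compound-free wells with enzyme and 100% = wells lacking proteasome; stock transfer was 100 nL into about 20 µL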
# Target sequence (Q9Y5K5 whole entry, looked up): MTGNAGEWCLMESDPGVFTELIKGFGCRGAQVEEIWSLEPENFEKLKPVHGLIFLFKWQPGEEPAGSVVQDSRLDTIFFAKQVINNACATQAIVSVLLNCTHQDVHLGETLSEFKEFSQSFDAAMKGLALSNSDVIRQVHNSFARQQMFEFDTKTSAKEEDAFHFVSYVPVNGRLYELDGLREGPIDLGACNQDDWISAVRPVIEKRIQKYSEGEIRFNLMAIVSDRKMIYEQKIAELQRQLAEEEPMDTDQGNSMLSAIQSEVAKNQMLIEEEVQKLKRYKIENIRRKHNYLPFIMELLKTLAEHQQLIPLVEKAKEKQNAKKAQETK
#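 Material: Human UCH37 enzyme supplied as purified proteasome complex | Schedule: 30 min preincubation with enzyme, 25 min cleavage at room temperature | Detection: AMC fluorescence 355/460 nm | Measure: % inhibition of Ub-AMC cleavage fluorescence | Controls: Wells without proteasome as full block, compound-free enzyme plus substrate as uninhibited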
# MLL AF4-AF9 inh – inhibitors of human MLL-AF4/AF9 interaction; P42568; AlphaScreen, biotin-AF4 peptide binding to FLAG-AF9; inhibition, % at 10 µM; 350,000 tested, 0.47% active; AID 651704;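 active = every replicate reaching a set inhibition limit, whatever the replicate mean, cut at about 25% in these data; inconclusive = mean inhibition reaches that limit but some replicates miss it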;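 note: 0% = plate neutral control median and 100% = total signal loss; the record names both 10 and 1 µM as test concentration; the first replicate is given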
# Target sequence (P42568 whole entry, looked up): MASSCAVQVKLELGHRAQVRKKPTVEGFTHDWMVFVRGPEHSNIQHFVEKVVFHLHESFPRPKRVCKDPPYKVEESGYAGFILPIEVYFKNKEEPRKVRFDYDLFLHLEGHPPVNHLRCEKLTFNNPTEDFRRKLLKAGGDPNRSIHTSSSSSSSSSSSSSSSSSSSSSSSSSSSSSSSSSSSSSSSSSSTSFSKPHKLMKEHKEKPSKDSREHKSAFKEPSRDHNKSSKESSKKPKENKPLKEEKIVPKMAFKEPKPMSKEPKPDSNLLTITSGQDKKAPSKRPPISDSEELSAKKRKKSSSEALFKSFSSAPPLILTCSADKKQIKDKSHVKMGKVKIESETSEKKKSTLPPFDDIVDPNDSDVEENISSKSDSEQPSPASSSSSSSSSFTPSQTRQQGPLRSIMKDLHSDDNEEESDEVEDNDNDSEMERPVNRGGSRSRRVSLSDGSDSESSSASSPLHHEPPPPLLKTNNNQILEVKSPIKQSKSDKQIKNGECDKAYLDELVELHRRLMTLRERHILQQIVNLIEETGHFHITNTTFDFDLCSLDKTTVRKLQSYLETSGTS
# Vif A3G – HIV-1 Vif–A3G interaction blockers – biochemical, TR-FRET, GST-Vif 1-94, biotin-A3G peptide, dose response retest, primary screen (AID 1117319). TR-FRET GST-Vif / biotin-A3G peptide binding; higher % means a stronger effect; test concentration not given here; strong numbers were not always called active. one-dose inhibition, %; IC50 in µM for titrated hits. 260,000 tested, 0.57% active;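 active = above the screen mean plus three standard deviations and confirmed in dose response; inconclusive = results disagree or hit not tested in dose response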;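 note: Vif residues 1-94 fused to GST binding biotinylated APOBEC3G peptide 110-148; 0% = full assay without inhibitor and 100% = GST in place of GST-Vif; retest series ran down from 100 µM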
# FGF22 binding – FGF22 (human) thermal shift binding. 340,000 tested, 1.5% active. recombinant FGF22 thermal shift, SYPRO orange fluorescence; percent of sucrose octasulfate shift, DMSO zero. calls only at 9.99 µM;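 active = melting point raised past a set limit in the mean and every replicate; inconclusive = no clear call; three in four hits are not shown here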
# Target sequence (Q9HCT0 whole entry, looked up): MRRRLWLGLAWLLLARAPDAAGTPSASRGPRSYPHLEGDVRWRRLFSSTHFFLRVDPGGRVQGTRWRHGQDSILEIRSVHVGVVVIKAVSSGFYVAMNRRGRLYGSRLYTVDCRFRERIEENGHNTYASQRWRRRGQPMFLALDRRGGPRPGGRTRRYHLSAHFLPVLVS
# HNF4A DNA FP – change in binding of human HNF4 alpha to DNA | HNF4a-FITC DNA binding, fluorescence polarization, 1 h | activity change, % at 10 µM | 360,000 tested, 0.3% active | AID 1224865; in the data active = activity change above about 30%, passing the limit was not always enough;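 note: controls were the assay level and a saturating level of protein; the project sought stronger binding though the title names inhibitors; some compounds called inactive have numbers as strong as hits; positive values seem to mean higher polarization but the record does not say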
# RanGTP-Imp inh – inhibitors of RanGTP-importin-beta interaction, primary screen, biochemical, FRET, CFP-Ran, YFP-importin-beta, homogeneous; cell-free CFP-Ran/YFP-importin-beta FRET ratio; AID 2216; 300,000 tested, 1.1% active; inhibition, % (test concentration not listed);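 active = most replicates above 15%; inconclusive = exactly half above 15%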;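 note: 0% = DMSO wells and 100% = Ran loaded with GDP instead of GTP; wells of about 40 µL received 100 nL stock; the first replicate is given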
# * = called active by the depositor; i = inactive; ? = inconclusive; . = no result given; & = joins results of further samples.
SMILES,E coli growth,UCH37 DUB inh,MLL AF4-AF9 inh,Vif A3G,FGF22 binding,HNF4A DNA FP,RanGTP-Imp inh
CCOC(=O)c1c(N=CN(C)C)c(C#N)n2c1CCC2,0.73,3.4,.,6%,.,1.1,0.1
COc1ccc(C(=O)C2CCCN(C(=O)C3=CCCC3)C2)c(C)c1 (stereo not given),0.65,2.5,-1.7,5%,i,3.6,4.6
CSc1nsc(/C=C/Nc2ccc(C)c(C)c2)c1C#N,0.71,-1.6,0.3,-15%,i,97,33*
Cc1ccccc1-c1nc(CS(=O)CC(=O)NCCN2CCOCC2)c(C)o1 (stereo not given),0.73,0.2,-10,-6%,i,7.6,1.8
COc1ccc(/C=C2\SC(=S)N(CCCC(=O)N3CCOCC3)C2=O)cc1,0.66,4.8,12,.,i,0.9,1.2
CC(C#N)Sc1ccc(S(=O)(=O)N2CCCCC2)cn1 (stereo not given),0.66,1.5,-2.3,.,i,-4.0,.
COc1ccc(-n2c(-c3ccc(C)cc3)n[nH]c2=S)cc1,0.72,0.7,-7.5,-2%,i,1.1,?
O=C1/C(=C/c2ccc(F)cc2)SC(=S)N1CCCC(=O)N1CCCCC1CCO (stereo not given),0.7,11,3.6,5%,i,2.0,7.1
COc1ccccc1CNC(=O)[C@H](C)NC(=O)C1CCN(C(=O)[C@@H](N)C(C)C)CC1,0.71,4.3,-1.1,.,i,1.7,1.2
O=C(NN=C1C2CC3CC1CC(Cl)(C3)C2)c1ccccn1,0.68,-0.6,-0.6,.,.,3.9,-2.9
Cc1ccc(S(=O)(=O)N2CCOC2CNC(=O)C(=O)NCc2ccncc2)cc1 (stereo not given),0.66,2.3,7.3,0%,i,0.6,8.7
CC(=O)N(C)c1ccc(N=Cc2c(O)ccc3ccccc23)cc1,0.72,7.8,-3.1,.,i,5.9,-5.1
O=C(NCc1ccncc1)C(=O)NCC1OCCCN1S(=O)(=O)c1ccc(F)cc1 (stereo not given),0.71,0.1,1.9,.,i,0.3,-2.6
CC(=O)c1cccc(NC(=O)c2ccc(C)c(S(=O)(=O)N3CCOCC3)c2)c1,0.69,2.9,1.6,.,i,1.6,1.6
O=c1nc2c(-c3cccc(Br)c3)n[nH]n2c2ccccc12,.,.,1.6,-16%,i,-5.9,-0.5
CC(CCn1cccn1)NC(=O)c1cc(COc2ccc(F)cc2F)on1 (stereo not given),0.68,2.9,-2.0,-6%,i,-1.1,-1.6
O=C(Nc1ccccc1C(=O)N1CCCC1)C1CCN(c2ncccn2)CC1,0.72,-11,.,7%,.,3.1,-1.7
Cc1ccccc1C(=O)NNS(=O)(=O)c1ccc(F)cc1,.,.,1.0,.,i,-2.1,.
CCOc1cc(/C=C2/NC(=O)N(CC(=O)Nc3cccc(C)c3)C2=O)ccc1O,0.77,0.3,.,-2%,.,2.3,3.5
c1ccc2c(c1)nc(NC1CCCCC1)c1nncn12,0.72,1.9,-2.9,-4%,i,-0.2,-1.3
O=C1N(c2ccc(Cl)cc2)C(c2ccccc2)N2CCCN12 (stereo not given),0.67,1.2,.,.,.,4.8,5.5
COc1ccc(OC)c(NC(=O)c2ccccc2NS(=O)(=O)c2cccc3cccnc23)c1,0.71,3.7,.,2%&11%,.,1.6,7.3
CC(C)(C)NC(=O)C(c1ccncc1)N(C(=O)Cn1nnc(-c2ccc(F)cc2)n1)c1cccc(F)c1 (stereo not given),0.6,0.4,-1.4,6%,i,-0.7,1.1
Cc1ccc(NC(=O)CN2CCN(C)CC2)cc1Br,0.69,2.5,-0.8,.,i,-2.9,3.0
Cc1ncnc(N)c1CCCNc1ccccc1,.,.,-1.1,.,i,1.0,.
SMILES,E coli growth,UCH37 DUB inh,MLL AF4-AF9 inh,Vif A3G,FGF22 binding,HNF4A DNA FP,RanGTP-Imp inh
CC(=O)Nc1ccc2c(c1)n(C)c(=O)n2C,0.73,1.1,.,-1%,.,-0.7,4.1
COCCSc1ccccc1C(=O)NCc1ccc(S(N)(=O)=O)cc1,0.69,4.5,-4.3,?,i,1.8,2.5
O=C(O)c1cn(-c2ccccc2)nc1-c1ccncc1,0.75,0.7,.,3%,.,0.6,-1.4
COc1ccccc1OCCCCOc1ccccc1C(C)=O,0.72,0.3,.,2%,.,2.4,-1.9
COc1ccccc1N1CCN(C(=O)CNC(=O)c2ccc(Cl)cc2Cl)CC1,0.65,6.2,-1.7,.,i,5.6,0.7
O=C(CCn1c(=O)sc2ccccc21)NCCCn1ccnc1,0.71,1.9,.,0%,.,8.8,0.2
Cc1cnc(C(=O)Nc2cccc(-c3nnc4n3CCCCC4)c2)cn1,0.73,3.0,.,.,.,-0.3,3.0
COc1ccc(-n2c(C)cc(=O)[nH]c2=O)cc1,0.68,2.7,-1.2,.,i,-1.4,2.8
O=C(CSc1ccc(-c2ccccn2)nn1)Nc1ccc(F)cc1F,0.6,0.1,2.3,.,i,-1.0,0.4
CN(CC(=O)Nc1ccccc1C(F)(F)F)C(=O)C1CCN(S(=O)(=O)c2ccc3c(c2)OCCO3)CC1,0.7,2.8,2.2,4%,i,-0.5,1.3
COc1ccc(C2=Nc3ccccc3N(C(=O)c3ccc4ncccc4c3)C2C(=O)NC2CCCC2)cc1 (stereo not given),.,.,12,.,i,3.4,.
O=C(O)C1C2OC(C(Br)C2Br)C1C(=O)O (stereo not given),0.71,2.4,0.7,-6%,.,-2.5,.
COc1ccccc1OCC(=O)Nc1ccc(S(=O)(=O)N2CCN(C)CC2)cc1,0.67,-2.1,3.5,20%,i,-21,4.7
O=C1C2CC=CCC2C(=O)N1c1ccc(NCCc2ccc(Cl)cc2)c([N+](=O)[O-])c1 (stereo not given),0.73,5.4,1.6,-6%,i,5.2,1.1
CC1(C)SC2c3ccccc3C(=O)N2[C@@H]1C(=O)O (stereo not given in full),0.69,3.0,-4.4,-7%,i,0.8,-2.9
CCn1c(=S)sc2c(=O)n(CC(=O)Nc3cc(OC)ccc3OC)c(C)nc21,0.65,5.0,6.7,.,i,0.4,1.0
COC(=O)CCC(=O)N1CCC(CCC(=O)NCc2ccc(F)cc2)CC1,0.68,0.6,-4.1,.,i,-0.9,-4.0
CS(=O)(=O)Cc1ccc(C(=O)N2CCCC2c2cccs2)cc1 (stereo not given),0.67,2.4,-26,0%,i,0.9,3.5
CCOC(=O)c1cccc(NC(=O)C2CCCO2)c1 (stereo not given),0.76,3.4,.,0%,.,0.5,-7.5
O=S(=O)(c1ccccc1)N(Cc1cccc(F)c1)c1ccccc1,0.63,5.3,-0.1,.,i,-7.4,1.2
COc1ccc(-c2noc(CNS(=O)(=O)c3ccc(NC(C)=O)cc3)n2)cc1,0.62,-0.7,-1.5,.,i,2.2,3.1
CSc1nc(Cl)c(Cc2ccc(OCC(C)C)cc2)c(N2CCOCC2)n1,0.73,6.5,-3.7,-13%,i,2.6,0.4
Oc1ccc(Cl)cc1C=Nc1ccc2c3c(cccc13)CC2,0.61,-1.5,8.8,9%,i,31,-112
CC(=O)Oc1ccc(-c2cccc(C(=O)OCC(=O)Nc3ccccc3Oc3ccccc3)c2)cc1,0.68,4.6,.,16%,.,-1.9,1.4
CC1CCCCN1C(=O)Nc1cccc(Cl)c1 (stereo not given),0.7,1.5,.,-3%,.,1.3,1.4
SMILES,E coli growth,UCH37 DUB inh,MLL AF4-AF9 inh,Vif A3G,FGF22 binding,HNF4A DNA FP,RanGTP-Imp inh
CN1N=C(c2ccc(Cl)cc2)CC(c2ccc(Cl)cc2)C1=O (stereo not given),0.66,0.1,7.6,-5%,i,-0.8,-1.7
N#CC1=C(N)Oc2n[nH]c(-c3ccncc3)c2C1c1ccsc1 (stereo not given),0.61,3.6,.,10%,.,1.0,0.2
O=C1C=C(c2ccc(O)cc2)C[C@@H](c2ccc3c(c2)OCO3)C1,.,-0.6,8.3,.,i,-5.3,.
NC(=O)c1ccc(NC(=O)C2CCCC2)cc1,0.65,-0.8,-2.1,.,i,-4.7,1.7
NNC(=O)c1cc2ccccc2cc1NS(=O)(=O)c1ccccc1,0.66,-3.3,0.0,.,i,0.7,-2.6
O=C(NNc1c2ccccc2nc2ccccc12)c1ccccc1Cl,0.66,6.6,-0.6,.,i,-0.7,27*
Cc1nn(-c2ccccc2)c(Cl)c1/C=C1\SC(=S)N(C)C1=O,0.71,4.0,.,?,.,2.2,-3.0
CC(=O)N1CCN(C(=O)Nc2cccc(C(F)(F)F)c2)CC1,0.72,3.2,.,1%,.,-3.3,3.6
COc1ccc(C(=O)c2cnc[nH]2)cc1OC,0.66,4.8,-11,0%,i,-0.1,8.8
CCC[C@H]1CN(c2ccccc2)C(=O)[C@@H]1CC(=O)NC,.,.,-4.4,.,i,-0.2,.
O=[N+]([O-])c1ccc(NC(=S)N2CCc3ccccc32)cc1,0.6,1.6,5.9,.,i,3.1,.
CCN(CC(=O)N1CCOCC1)S(=O)(=O)c1cc(Cl)ccc1Cl,0.69,3.0,-5.7,-4%,i,5.3,-4.9
CCC(=O)Nc1ccc(N2CCN(S(C)(=O)=O)CC2)cc1,0.73,4.5,.,.,.,-2.7,-2.1
O=C(CSc1nn(-c2ccccc2)c(=S)s1)NC1CCS(=O)(=O)C1 (stereo not given),0.71,4.1,.,.,.,1.0,8.2
CCOc1ccc(C(=O)C(C)OC(=O)C2CCN(c3ccc(C(F)(F)F)cn3)CC2)cc1 (stereo not given),0.65,1.5,-9.0,1%,i,-1.5,-0.9
Cc1noc(C)c1COC(=O)Cc1ccc(Cl)c(Cl)c1,0.66,-1.9,.,0%,.,1.7,1.8
Cc1ccc(-n2nnc(-c3nccn3C)n2)cc1,0.62,-1.0,-1.0,-5%,i,-1.2,0.3
O=C(CSc1ccc(-c2ccc(F)cc2)nn1)NCc1ccco1,0.66,4.1,.,-8%,.,-3.4,-3.0
COc1cnn(-c2ccccc2)c(=O)c1SCc1ccc(Cl)cc1Cl,0.74,-0.1,.,0%,.,-2.4,-2.1
Cc1ccc(C)c(NC(=O)CSc2nc3ccc(N4C(=O)c5ccccc5C4=O)cc3s2)c1,0.67,2.0,.,.,.,1.3,3.2
C[C@H]1CN([C@@H](C)CO)C(=O)CCCn2nncc2CO[C@@H]1CN(C)Cc1ccc2c(c1)OCCO2,.,.,-0.1&1.8,3%,i,1.8,.
O=C1C2C3CCC(C3)C2C(=O)N1Cc1ccco1 (stereo not given),0.66,2.6,.,-18%,.,-1.5,1.1
CC(C)N1CC(O)=C(c2nc3ccccc3[nH]2)C1=N,0.64,2.7,-33,?,i,0.7,0.3
O=C(COC(=O)c1c2c(nc3ccccc13)/C(=C/c1cccc([N+](=O)[O-])c1)CCC2)NC1CCS(=O)(=O)C1 (stereo not given),0.75,2.8,.,29%,.,1.4,-1.0

# Entries above with an NH in an aromatic ring:
SMILES,E coli growth,UCH37 DUB inh,MLL AF4-AF9 inh,Vif A3G,FGF22 binding,HNF4A DNA FP,RanGTP-Imp inh
COc1ccc(-n2c(-c3ccc(C)cc3)n[nH]c2=S)cc1,0.72,0.7,-7.5,-2%,i,1.1,?
O=c1nc2c(-c3cccc(Br)c3)n[nH]n2c2ccccc12,.,.,1.6,-16%,i,-5.9,-0.5
COc1ccc(-n2c(C)cc(=O)[nH]c2=O)cc1,0.68,2.7,-1.2,.,i,-1.4,2.8
N#CC1=C(N)Oc2n[nH]c(-c3ccncc3)c2C1c1ccsc1 (stereo not given),0.61,3.6,.,10%,.,1.0,0.2
COc1ccc(C(=O)c2cnc[nH]2)cc1OC,0.66,4.8,-11,0%,i,-0.1,8.8
CC(C)N1CC(O)=C(c2nc3ccccc3[nH]2)C1=N,0.64,2.7,-33,?,i,0.7,0.3

# Single entries from the entries so far.
# In RanGTP-Imp inh, `Cc1noc(C)c1COC(=O)Cc1ccc(Cl)c(Cl)c1` is listed with 1.8
# In Vif A3G, `COc1ccc(C(=O)c2cnc[nH]2)cc1OC` is listed with 0%

# Only part of the results is shown; count on the stated rates, not on these rows.
